CtBP-E1A blk = inhibitors of CtBP/E1A interaction | AlphaScreen GST-E1A/His-CtBP binding, 1536-well; stronger effect = lower value; control for the full effect not named in the record | activity change, % (concentration not given with the values) | 340,000 tested, 0.49% active; in the data active means activity change below about -65%; inconclusive means about -30% to -65%; inactive means above about -30%; note: % is set by controls: 0 for no effect and ±100 for the full control effect
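Protein mix (5X: 125 nM each GST-E1A, His-CtBP) was incubated with pinned compound 2 h at 37 deg C in dark, in 50 mM Tris pH 8.0 buffer with 300 mM NaCl. Glutathione donor and nickel acceptor beads followed; AlphaScreen signal read after 1 h.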
Sfp inh = Sfp phosphopantetheinyl transferase inhibition; Q9F4F7; Biochemical Sfp PPTase activity, qHTS; Potency, µM, for the others: max response, negative = inhibition, most hits filed as inhibitors; 310,000 tested, 3.5% active; AID 1490; active = well fitted inhibition curve with a large enough effect; inconclusive = small, poorly fitted or top-dose-only effect, or another doubt; inactive = no such curve, though single readings can be large or run the other way;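 note: the enzyme is Sfp with the accession as filed and its product quenches rhodamine fluorescence; potency is the fitted concentration of half-maximal effect; 0% = enzyme reaction without inhibitor and -100% = no enzyme wells; top concentration of the series not given in the record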
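Step 1, compound plus 15 nM Sfp-PPTase, 15 min, room temperature. Step 2, add rhodamine-CoA (5 uM) and BHQ-2-YbbR (12.5 uM). Step 3, read 525/598 nm fluorescence at 0 and 30 min.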
gsp ag = gsp mutant agonism. gsp mutant cells, cAMP HTRF, 30 min; control for the full effect not named in the record. Potency, µM (series often up to 76.9 µM), inactives show at the highest dose activation (cAMP increase), actives largely listed as activators. 340,000 tested, 0.13% active. AID 624287; active = well fitted activation curve with a large enough effect; inconclusive = small, poorly fitted or top-dose-only effect, or another doubt; inactive = no such curve, though single readings can be large or run the other way; cell line not stated here;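 note: phosphodiesterase inhibitor Ro 20-1724 added with compounds to block cAMP breakdown; potency is the fitted concentration of half-maximal effect; nearly all actives have a fitted effect of over 60% in size; about a fifth of the inactives were tested at one dose only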
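Cells in DMEM/10% FBS with G418 were pretreated with compounds in DMSO plus […] (300 uM stock) for 30 min at 37C. cAMP was measured by HTRF (cAMP-d2 plus anti-cAMP antibody-K) after 30 min at room temperature.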
TRPV1 potentiator = potentiators of human vanilloid receptor 1 (TRPV1) | Q8NER1 | potentiation, % at 8.33 µM | TRPV1-expressing cells, Fluo-8 calcium influx, capsaicin EC20 potentiation; host cell line not named in the record; control for the full effect not named in the record | 320,000 tested, 0.02% active; active means potentiation above 80%; inconclusive means 30% to 80%; inactive means below 30%; note: 0% is about no effect
Target sequence (Q8NER1 whole entry, looked up): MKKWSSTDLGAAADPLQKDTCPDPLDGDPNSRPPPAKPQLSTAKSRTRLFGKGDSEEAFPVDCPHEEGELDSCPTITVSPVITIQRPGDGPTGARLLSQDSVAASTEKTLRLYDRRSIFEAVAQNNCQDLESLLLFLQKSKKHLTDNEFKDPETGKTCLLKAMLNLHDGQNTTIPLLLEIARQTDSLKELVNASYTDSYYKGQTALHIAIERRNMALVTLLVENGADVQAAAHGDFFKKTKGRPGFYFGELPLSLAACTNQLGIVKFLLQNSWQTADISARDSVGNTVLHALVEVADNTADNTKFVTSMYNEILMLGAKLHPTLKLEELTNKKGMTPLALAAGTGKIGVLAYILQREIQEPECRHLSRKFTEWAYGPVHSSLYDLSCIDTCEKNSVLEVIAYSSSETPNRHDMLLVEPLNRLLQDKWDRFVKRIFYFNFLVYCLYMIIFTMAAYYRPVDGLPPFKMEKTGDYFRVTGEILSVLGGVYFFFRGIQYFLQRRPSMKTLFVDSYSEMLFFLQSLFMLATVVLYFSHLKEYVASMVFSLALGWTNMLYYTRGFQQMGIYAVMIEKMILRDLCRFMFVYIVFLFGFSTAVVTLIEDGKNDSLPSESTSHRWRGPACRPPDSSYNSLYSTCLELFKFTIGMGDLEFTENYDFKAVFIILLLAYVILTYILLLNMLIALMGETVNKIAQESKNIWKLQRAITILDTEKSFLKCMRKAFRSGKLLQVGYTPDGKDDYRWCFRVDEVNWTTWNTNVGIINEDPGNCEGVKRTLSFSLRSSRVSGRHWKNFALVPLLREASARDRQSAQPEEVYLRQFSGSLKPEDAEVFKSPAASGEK
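Fluo-8 calcium influx in TRPV1-expressing cells, kinetic read (ex 480/em 520 nm). Compound added and read 3 min for agonist activity, followed by capsaicin at EC20 final and 2 min further read for enhancement.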
Menin MLL FP FL = displaces fluorescein MLL peptide from human menin; FP activity change, % at 61.4 µM; Fluorescence polarization, fluorescein-MLL peptide displacement from menin; 290,000 tested, under 10 active; AID 1766; inconclusive = falling polarisation curve, or a change in total fluorescence; inactive = total fluorescence flat and polarisation flat or rising; no compound was filed as active; the % refers to the polarisation; negative = inhibition;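 note: % of control where 0% means no effect; inhibitors lower the polarisation; unlabelled MLL peptide was the positive control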
gsp antag = antagonists of gsp mutant (McCune-Albright syndrome) | gsp-mutant cells, cAMP HTRF, 30 min; control for the full effect not named in the record | Potency, µM (titrated, usually from 76.9 µM), for inactives: top-dose activity change, negative = inhibition, hits mostly inhibitors | 340,000 tested, 0.4% active | AID 624288; active = falling curve of any shape with a large fitted effect; inconclusive = falling curve, mostly with a smaller effect; inactive = flat or rising curve; cell line not stated here;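 note: intracellular cAMP measured with PDE inhibitor Ro 20-1724 present during compound exposure; potency is the fitted concentration of half-maximal effect; % is set by controls: 0 for no effect and ±100 for the full control effect; nearly all actives have a fitted effect of over 65% in size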
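Measurement of cellular cAMP by homogeneous time-resolved fluorescence following a 30 min compound exposure at 37C. The PDE inhibitor […] was present throughout; the assay buffer was DPBS with 0.05% BSA and 0.005% Tween 20.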
ClpP mod = qHTS Assay for Activators of ClpP. ATP-dependent Clp protease proteolytic subunit (Bacillus subtilis (strain 168)), P80244. purified B. subtilis ClpP, FRET peptide cleavage, 20 min. Potency, µM (top dose mostly 57.5 µM), for the others: top-dose activity change, negative = active. 340,000 tested, 1.9% active; active = well fitted falling curve with a large enough effect; inconclusive = small, poorly fitted or top-dose-only effect; inactive = no such curve, though single readings can be large or run the other way; note: potency is the fitted concentration of half-maximal effect; the source files actives as falling curves though it sought activators and does not explain the sign; nearly all actives have a fitted effect of over 65% in size; many hits overshoot -100%
Target sequence (P80244 whole entry, looked up): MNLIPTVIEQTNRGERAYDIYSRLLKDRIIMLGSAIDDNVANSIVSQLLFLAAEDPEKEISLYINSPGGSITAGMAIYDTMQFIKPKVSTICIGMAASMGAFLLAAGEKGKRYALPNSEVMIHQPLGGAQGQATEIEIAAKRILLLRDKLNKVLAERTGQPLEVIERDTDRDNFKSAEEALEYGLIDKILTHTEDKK
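Buffer: 100 mM Tris/HCl pH8, 100 mM KCl, 0.05% low protease BSA, 2.5% glycerol, 0.01% Tween-20. ClpP 10 microg/mL final; 20 min RT; delta FRET normalized to ADEP and DMSO controls.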
Active calls of the source: *; [ ] = another dose, or the depositor's remark.

NC(=O)c1cc2cc(Cc3ccccc3Cl)ccc2oc1=O was read as CtBP-E1A blk 0, Sfp inh 14%, gsp ag -39%[15.4 µM], TRPV1 potentiator -9, Menin MLL FP FL -5.3, gsp antag 4% and ClpP mod -2.0%.
Cn1c(=O)[nH]c(=O)c2c1nc(SCc1ccccc1Cl)n2CC(N)=O was read as Sfp inh 14%, TRPV1 potentiator 8 and Menin MLL FP FL -1.9.
CC(C)CCC(C(=O)O)C(C)CC(=O)NC1CCCCC1 (stereo not drawn) was read as CtBP-E1A blk -1, Sfp inh 12%, gsp ag inconclusive, TRPV1 potentiator 4, Menin MLL FP FL -0.4, gsp antag -9% and ClpP mod 0.1%.
For O=C(C=P(c1ccccc1)(c1ccccc1)c1ccccc1)c1ccccc1-c1ccccc1C(=O)C=P(c1ccccc1)(c1ccccc1)c1ccccc1 the results were CtBP-E1A blk -30, gsp ag 23%, gsp antag -20% and ClpP mod -14%.
Screening Cc1csc(NC(=O)CSc2nc3[nH]c(=O)cc(O)c3s2)n1 returned CtBP-E1A blk 0, gsp ag 19%[15.4 µM] and gsp antag -5%.
For COC(=O)c1cnn(-c2ccc(C)c(C)c2)c1-n1cccc1 the results were CtBP-E1A blk 8, Sfp inh -4%, gsp ag 13%, TRPV1 potentiator 1, Menin MLL FP FL 1.2, gsp antag -2% and ClpP mod -3.0%.
Screening CCOCCCn1c(=NC(=O)c2ccc(OC)c(OC)c2)c(C#N)cc2c(=O)n3cccc(C)c3nc21 returned Sfp inh 13%, TRPV1 potentiator 0 and Menin MLL FP FL 3.1.
`CC(C(=O)Nc1ccc(F)cc1Cl)N(C)CCOc1ccccc1` (stereo not drawn) gave CtBP-E1A blk 28, Sfp inh 1%, gsp ag -4%, TRPV1 potentiator -26, Menin MLL FP FL -2.9 and gsp antag -12%.
`O=C(Cc1ccccc1)NCc1n[nH]c(=S)n1-c1ccccc1` gave Sfp inh 5%, gsp ag 3%[15.4 µM], TRPV1 potentiator -7, Menin MLL FP FL 0.3 and gsp antag 11%.
NNC(=O)CSc1ncc(-c2ccccc2)[nH]1 was read as CtBP-E1A blk 5, Sfp inh 9%, gsp ag -21%, TRPV1 potentiator -3, Menin MLL FP FL -3.0, gsp antag -1% and ClpP mod -0.2%.
`O=C(Cn1cc(C(F)(F)F)ccc1=O)N/N=C/c1ccccc1` gave CtBP-E1A blk 9, Sfp inh 16%, gsp ag 2%[15.4 µM], TRPV1 potentiator 1, Menin MLL FP FL -0.6 and gsp antag 8%.
`CC(C)c1ccc(C2=NN(c3ccccc3)C(=O)CC2)cc1` gave CtBP-E1A blk 22, Sfp inh -21%, gsp ag -21%, TRPV1 potentiator -8, Menin MLL FP FL 3.3, gsp antag -6% and ClpP mod -3.4%.
`CC(C)(C)NC(=O)c1ccc(COCC(F)(F)F)o1` gave CtBP-E1A blk 1, Sfp inh 2%, gsp ag -36%[inhibitor], TRPV1 potentiator -11, Menin MLL FP FL 1.4, gsp antag 3% and ClpP mod -17%.
`O=C(O)CCCC(=O)Nc1cccc(-c2nc3ccccc3[nH]2)c1` gave CtBP-E1A blk -10, Sfp inh 7%, gsp ag 9%, TRPV1 potentiator 9, Menin MLL FP FL -0.8, gsp antag 10% and ClpP mod 25µM*.
C#CCOCCOCCOCCNc1nc(N2CCN(C(=O)[C@H](CC(N)=O)n3cc([C@@H](N)CC(N)=O)nn3)CC2)nc(N2CCN(C(=O)[C@H](CC(N)=O)n3cc([C@@H](N)CC(N)=O)nn3)CC2)n1 was read as CtBP-E1A blk inconclusive, gsp antag -2% and ClpP mod -5.2%.
Screening CCCn1c(C(C)Nc2nc(-c3ccc(OC)cc3)cs2)nc2ccccc21 (stereo not drawn) returned CtBP-E1A blk 0, Sfp inh -10%, TRPV1 potentiator 6, Menin MLL FP FL 2.7, gsp antag -3% and ClpP mod -4.3%.
For CN(C)CCCNC(=S)Nc1ccc(Br)cc1 the results were Sfp inh -20%, gsp ag -19%, TRPV1 potentiator -2, Menin MLL FP FL -5.1, gsp antag -3% and ClpP mod -2.0%.
CNCC/C=C1/c2ccccc2CSc2ccccc21 was read as CtBP-E1A blk -10, Sfp inh -3%, gsp ag -16%, TRPV1 potentiator -10, Menin MLL FP FL 4.1, gsp antag 12% and ClpP mod -0.8%.
For O=[N+]([O-])c1ccc(-n2cccc2/C=N/Nc2nc(N3CCCCC3)nc(N3CCCCC3)n2)cc1 the results were Sfp inh 5%, TRPV1 potentiator 26 and Menin MLL FP FL -3.6.
For C#CCOCCOCCOCCNc1nc(N2CCOCC2)nc(N2CCN(C(=O)[C@H]([C@@H](C)CC)n3cc(CCCCN)nn3)CC2)n1 the results were CtBP-E1A blk 5, Sfp inh -5%, TRPV1 potentiator -5, Menin MLL FP FL -1.8, gsp antag -5% and ClpP mod 1.1%.
Screening CC1(C)Cc2cccc(C(=O)NC3CCN(Cc4ccccc4)CC3)c2O1 returned CtBP-E1A blk 1, Sfp inh 14%, gsp ag 6%[15.4 µM], TRPV1 potentiator -8, Menin MLL FP FL 2.6 and gsp antag -4%.
Screening CCN1C(=O)[C@H]2[C@@H](c3ccc(-c4ccc5c(c4)OCO5)c(OC)c3)N[C@@](C)(C(=O)OC)[C@H]2C1=O returned CtBP-E1A blk -2, gsp antag inconclusive and ClpP mod inconclusive.
Screening Cc1nc2sccn2c1-c1csc(NCc2ccccc2)n1 returned CtBP-E1A blk 6, Sfp inh -16%, gsp ag inconclusive, TRPV1 potentiator 23, Menin MLL FP FL 3.2, gsp antag inconclusive and ClpP mod 0.5%.
For CN(C1CCCCC1)S(=O)(=O)c1ccc(=S)[nH]c1 the results were CtBP-E1A blk 12, gsp ag -29%, TRPV1 potentiator 0, gsp antag 5% and ClpP mod 0.5%.
Screening CCc1nc2cc3sc(CC)nc3cc2s1 returned CtBP-E1A blk 0, Sfp inh 11%, gsp ag inconclusive, TRPV1 potentiator -6, Menin MLL FP FL 0.4 and gsp antag 13%.
`CC(=O)N/C(=C/c1ccc(Cl)cc1)C(=O)NCCc1c[nH]c2ccccc12` gave CtBP-E1A blk -7, Sfp inh -3%, gsp ag 7%, TRPV1 potentiator 20, Menin MLL FP FL 2.2, gsp antag 8% and ClpP mod -30%.
For COc1ccc(CNC(=O)C2CCN(C(=O)c3cccc(Cl)c3)CC2)cc1 the results were CtBP-E1A blk 0, Sfp inh 16%, gsp ag -42%[inhibitor], TRPV1 potentiator -9, Menin MLL FP FL -1.5, gsp antag 5% and ClpP mod 0.9%.
Screening O=C(c1sccc1-c1ccccc1)N1CCN(S(=O)(=O)c2ccccc2)CC1 returned CtBP-E1A blk -3, Sfp inh 6%, gsp ag 15%, TRPV1 potentiator -8, gsp antag 0% and ClpP mod 0.8%.
For CCN(CC)S(=O)(=O)c1ccc(Oc2ccc(S(=O)(=O)N(CC)CC)cc2)cc1 the results were CtBP-E1A blk 6, Sfp inh 15%, gsp ag -12%, TRPV1 potentiator 2, Menin MLL FP FL 1.0, gsp antag inconclusive and ClpP mod -0.1%.
COc1cc(/C=N\NC(=O)c2cccc(Cl)c2)ccc1Oc1ccc([N+](=O)[O-])cn1 was read as CtBP-E1A blk -14, Sfp inh 8%, gsp ag 15%[15.4 µM], TRPV1 potentiator 6, Menin MLL FP FL 4.5 and gsp antag -8%.
`CCOC(=O)c1ccc(NC(=O)C2CCCN(S(=O)(=O)c3cnc[nH]3)C2)cc1` (stereo not drawn) gave CtBP-E1A blk -18, Sfp inh -2%, gsp ag inconclusive, TRPV1 potentiator 21, Menin MLL FP FL 2.5, gsp antag -3% and ClpP mod -2.5%.
COCCn1c(SCC(=O)Nc2c(C)n(C)n(-c3ccccc3)c2=O)nc2ccccc2c1=O was read as CtBP-E1A blk 21, gsp ag 31%, TRPV1 potentiator 2, gsp antag inconclusive and ClpP mod 0.4%.
For Cc1ccc2nc(SCC(=O)NCc3ccco3)c(C)cc2c1 the results were CtBP-E1A blk -5, Sfp inh -15%, gsp ag 25%, TRPV1 potentiator -2, Menin MLL FP FL 0.7 and gsp antag -19%.
Screening CC1NC(=S)N(Cc2ccccc2)C1=O (stereo not drawn) returned CtBP-E1A blk -7, Sfp inh 31%, gsp ag 21%[15.4 µM], TRPV1 potentiator 2, Menin MLL FP FL 2.3 and gsp antag 6%.
Screening NC(=O)c1ccc(NC(=O)COC(=O)CCN=C2NS(=O)(=O)c3ccccc32)cc1 returned CtBP-E1A blk -19, gsp ag 9%, TRPV1 potentiator -8, gsp antag 13% and ClpP mod -0.9%.
`Cc1ccc(C(=O)c2c(NC(=O)c3ccncc3)sc3c2CCCC3)cc1` gave CtBP-E1A blk -5, Sfp inh inconclusive, gsp ag 1%, TRPV1 potentiator -11, Menin MLL FP FL 0.6, gsp antag -6% and ClpP mod -2.2%.
Screening O=c1[nH]nnc2cc(Cl)ccc12 returned CtBP-E1A blk 11, gsp ag -7%[15.4 µM], gsp antag 8% and ClpP mod 0.8%.

Reprinted at random: 5 records from the list, in no set order.
For COC(=O)c1cnn(-c2ccc(C)c(C)c2)c1-n1cccc1 the results were CtBP-E1A blk 8, Sfp inh -4%, gsp ag 13%, TRPV1 potentiator 1, Menin MLL FP FL 1.2, gsp antag -2% and ClpP mod -3.0%.
For O=[N+]([O-])c1ccc(-n2cccc2/C=N/Nc2nc(N3CCCCC3)nc(N3CCCCC3)n2)cc1 the results were Sfp inh 5%, TRPV1 potentiator 26 and Menin MLL FP FL -3.6.
Screening O=c1[nH]nnc2cc(Cl)ccc12 returned CtBP-E1A blk 11, gsp ag -7%[15.4 µM], gsp antag 8% and ClpP mod 0.8%.
For Cc1ccc2nc(SCC(=O)NCc3ccco3)c(C)cc2c1 the results were CtBP-E1A blk -5, Sfp inh -15%, gsp ag 25%, TRPV1 potentiator -2, Menin MLL FP FL 0.7 and gsp antag -19%.
For COc1ccc(CNC(=O)C2CCN(C(=O)c3cccc(Cl)c3)CC2)cc1 the results were CtBP-E1A blk 0, Sfp inh 16%, gsp ag -42%[inhibitor], TRPV1 potentiator -9, Menin MLL FP FL -1.5, gsp antag 5% and ClpP mod 0.9%.
